High-throughput results: PubChem BioAssay, several laboratories
GPR55 LPI antagonism: GPR55 antagonists blocking LPI-driven arrestin recruitment, primary screen, imaging, U2OS, beta-arrestin-GFP, LPI agonist (AID 2013). U2OS GPR55 beta-arrestin-GFP translocation imaging, LPI antagonism; higher % means a stronger effect. 290,000 compounds, 0.13% hits. inhibition, % at 10 µM; hits with a dose series show IC50 in µM;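 active = spots per cell inhibited over 60%, with over 100 cells counted and total cytoplasm intensity under 500,000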;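 note: U2OS cells stably carrying GPR55 and arrestin-GFP stimulated by 5 µM LPI near EC80; imaged beta-arrestin-GFP aggregate spots per cell after agonist stimulation; plate controls were LPI-stimulated DMSO wells for no effect and DMSO wells without LPI for full effect; some results filed as inactive read as strong as hits; confirmed hits need IC50 under 10 µM and bright autofluorescent wells are also inconclusive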
HIV fusion peptide: cell-free HIV fusion peptide-binding blockers – biochemical, uHTS, fluorescence dequenching, primary screen (AID 1986) | cell-free peptide binding, fluorescence dequenching, 30 min; higher % means a stronger effect | inhibition, % at 20 µM, or IC50 in µM where a hit was titrated | 290,000 compounds, 0.3% hits; in the data active = inhibition mostly above about 52%, no sharp cut-off; inactive = mostly below about 76%; note: some results filed as inactive read as strong as hits
KOR beta-arrestin: KOR agonists, beta-arrestin recruitment, primary screen, cell-based, luminescence, uHTS (AID 1777); KOR beta-arrestin recruitment, luminescence; higher % means a stronger effect; one-dose activation, % at 10 µM; EC50 in µM for titrated hits; 280,000 compounds, 0.02% hits; in the data active = activation above about 50%, passing the limit was not always enough; note: a part of the inactive calls stands beside numbers as strong as those of hits
GPR55 beta-arrestin: GPR55 agonists via beta-arrestin recruitment, primary screen, imaging, U2OS cells, beta-arrestin-GFP redistribution (AID 1961). 290,000 compounds, 0.048% hits. activation, % at 10 µM; hits with a dose series show EC50 in µM. U2OS GPR55 beta-arrestin-GFP redistribution imaging; higher % means a stronger effect;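 active = activation above 40% with more than 50 cells counted in the well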;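 note: U2OS osteosarcoma cells stably expressing GPR55 and beta-arrestin-GFP; plate controls were DMSO negative control for no effect and LPI positive control for full effect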
GPR35 arrestin U2OS: inhibition of zaprinast-stimulated GPR35 beta-arrestin translocation – imaging, U2OS, beta-arrestin-GFP, zaprinast agonist, primary screen (AID 2058); U2OS GPR35 beta-arrestin-GFP translocation imaging, zaprinast antagonism; higher % means a stronger effect; one-dose inhibition, % at 10 µM; IC50 in µM for titrated hits; 290,000 compounds, 0.052% hits;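 active = inhibition of at least 50% with at least 30 cells and total cytoplasm GFP at most 10,000,000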
Myeloid diff 2: myeloid differentiation induction | ER-HoxA9 myeloid progenitors, lysozyme-GFP differentiation, flow cytometry | calls only at 10 µM | AID 624256 | 360,000 compounds, 1% hits;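 active = normalized GFP-positive differentiation at or above the plate's own cutoff, the solvent-only control mean plus 3 SD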;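 note: cells exposed to compound for four days before flow analysis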
Myeloid diff 2 GFP+ MAC1+ %: also measured in Myeloid diff 2; calls as there; GFP+ MAC1+ double positive, %; measured here: differentiation confirmed by MAC1 staining
Active calls of the source: *; i = inactive; nt = no result given.

Results follow in this order: GPR55 LPI antagonism, HIV fusion peptide, KOR beta-arrestin, GPR55 beta-arrestin, GPR35 arrestin U2OS, Myeloid diff 2, Myeloid diff 2 GFP+ MAC1+ %
- CCN(c1ccc(NC(=O)COC(=O)c2ccc(S(=O)(=O)N3CCCC3)cc2)cc1)C(C)C
  -8%, -3.1%, 6.2%, 0.0%, 11%, i, 1.3
- Cc1ccc(Nc2cc(=O)n(C3CCCCC3)c(=O)[nH]2)cc1C
  -4%, -0.7%, -1.0%, -0.1%, 6%, i, 1.5
- CCc1cccc(CC)c1NC(=O)CN1CC(C)SC1=NC1CCCCC1 (stereo not given)
  3%, 0.5%, 5.7%, -0.1%, 22%, i, 1.8
- Cc1c(C(=O)O)sc2nc(C)n(C)c(=O)c12
  24%, 4.2%, 2.4%, 0.3%, 12%, i, 2.4
- CCOC(=O)Cc1csc(NC(=O)c2c(-c3c(Cl)cccc3Cl)noc2C)n1
  nt, 3.6%, -1.4%, -0.1%, 17%, i, 0.7
- CCN(CC)S(=O)(=O)c1ccc2c(c1)nc(SCC(=O)N1CCOCC1)n2-c1ccccc1OC
  11%, 1.1%, 3.3%, 0.2%, -3%, i, 0.8
- CC(C)CC(=O)NC1(C(F)(F)F)C(=O)N(Cc2ccccc2)C2=C1C(=O)CC(C)(C)C2 (stereo not given)
  27%, -0.3%, 6.3%, -0.2%, 9%, i, 0.5
- COc1ccc(S(=O)(=O)N2Cc3ccccc3CC2C(=O)Nc2nccs2)cc1 (stereo not given)
  3%, -0.3%, -0.7%, 0.0%, 5%, i, 1.1
- CCOC(=O)CSc1nc(-c2ccccc2)nc2ccccc12
  16%, 3.8%, 2.7%, 0.5%, 11%, i, 0.8
- COc1ccccc1OC(C)C(=O)O (stereo not given)
  6%, -0.4%, 5.0%, 0.3%, 9%, i, 0.4
- COc1ccc(NC(=O)C(CCS(C)(=O)=O)NC(C)=O)cc1 (stereo not given)
  -2%, -1.1%, 2.2%, 0.3%, -9%, i, 0.4
- COc1ccc(Cl)cc1C(=O)NNC(=S)NC(=O)c1cc(-c2ccc(Cl)cc2)nc2ccccc12
  11%, 38%, -0.2%, -0.1%, 14%, i, 0.8
- O=C(NC1(C(F)(F)F)C(=O)Nc2c1c(=O)[nH]c(=O)n2Cc1ccccc1)c1ccc(Cl)cc1Cl (stereo not given)
  4%, 0.9%, 6.3%, 0.1%, 7%, i, 1.9
- O=C(c1ccc2c(c1)C(=O)N(Cc1ccco1)C2=O)N1CCOCC1
  5%, -0.8%, -1.3%, 0.2%, 19%, i, 0.5
- CN1C(=O)CC(NNC(=O)c2ccc(Cl)cc2)C1=O (stereo not given)
  7%, -0.7%, -0.8%, -0.1%, 4%, i, 0.6
- CCCn1c(-c2cc(OC)c(OC)c(OC)c2)nc2nc3ccccc3nc21
  29%, -0.6%, 2.7%, -0.1%, 7%, i, 1.1
- CCn1cc(C(=O)NCC2CCCO2)c(=O)c2cc(F)c(N3CCN(C)CC3)cc21 (stereo not given)
  8%, -0.4%, 1.8%, -0.2%, 5%, i, 0.6
- CCC(=O)NC(=S)NNC(=O)c1ccc(OC)cc1
  5%, -0.7%, -3.2%, -0.1%, -2%, i, 1.5
- Cc1nc(N2CCN(S(=O)(=O)c3ccccc3)CC2)c2c3c(sc2n1)CC(C)CC3 (stereo not given)
  14%, -2.1%, 9.3%, -0.1%, -9%, i, 6.5
- O=C(COC(=O)c1ccccc1Nc1ccc(SC(F)F)cc1)NCc1ccco1
  5%, 3.1%, 3.4%, -2.3%, 4%, i, 0.6
- COc1cccc(C2c3c(-c4ccccc4)n[nH]c3C(=O)N2c2ccc(C(=O)O)cc2)c1 (stereo not given)
  17%, 13%, 1.7%, -0.1%, 4%, i, 1.4
- COc1c(Cl)cnn(-c2ccc(C)cc2)c1=O
  6%, 0.0%, 0.3%, -0.3%, -14%, i, 1.4
- Cc1cccc(Cc2c(C)nc3nc(SCC(=O)NCc4ccco4)nn3c2C)c1
  3%, 2.1%, -1.0%, -2.3%, -18%, i, 1.4
- CCN(C(=O)COc1cc(=O)n(CC)c2ccccc12)c1cc(Cl)ccc1OC
  9%, -2.2%, -1.2%, 0.6%, 24%, i, 5.2
- CCOC(=O)NC(NC(=O)OCC)C(=O)c1ccc(F)cc1
  1%, -2.4%, -2.8%, 0.0%, -6%, i, 2.7
- O=C(NC1CCCC1)C(c1ccsc1)N(Cc1ccccc1)C(=O)Cc1cccs1 (stereo not given)
  10%, -0.8%, 1.5%, 0.2%, -2%, i, 2.3
- CC(C)CCNC(=O)CN(C(=O)Cn1nnc(-c2ccccc2F)n1)c1cccc2c1CCCC2
  14%, 1.5%, 2.4%, -0.2%, 1%, i, 0.7
- Cc1ccsc1-c1nc(-c2ccccc2)c(-c2ccccc2)[nH]1
  -1%, 3.2%, 1.7%, 0.0%, 9%, i, 0.5
- O=C(Nc1cc2c(oc1=O)CCCC2=O)c1ccc(Cl)cc1
  16%, 30%, 0.6%, -0.1%, 17%, i, 1.1
- O=C(O)C(Cc1ccccc1)N1C(=O)c2ccccc2C1=O (stereo not given)
  -10%, -0.9%, -7.5%, 0.3%, -8%, i, 0.5

Structural class: the compounds so far with fluorine
Results follow in this order: GPR55 LPI antagonism, HIV fusion peptide, KOR beta-arrestin, GPR55 beta-arrestin, GPR35 arrestin U2OS, Myeloid diff 2, Myeloid diff 2 GFP+ MAC1+ %
- CC(C)CC(=O)NC1(C(F)(F)F)C(=O)N(Cc2ccccc2)C2=C1C(=O)CC(C)(C)C2 (stereo not given)
  27%, -0.3%, 6.3%, -0.2%, 9%, i, 0.5
- O=C(NC1(C(F)(F)F)C(=O)Nc2c1c(=O)[nH]c(=O)n2Cc1ccccc1)c1ccc(Cl)cc1Cl (stereo not given)
  4%, 0.9%, 6.3%, 0.1%, 7%, i, 1.9
- CCn1cc(C(=O)NCC2CCCO2)c(=O)c2cc(F)c(N3CCN(C)CC3)cc21 (stereo not given)
  8%, -0.4%, 1.8%, -0.2%, 5%, i, 0.6
- O=C(COC(=O)c1ccccc1Nc1ccc(SC(F)F)cc1)NCc1ccco1
  5%, 3.1%, 3.4%, -2.3%, 4%, i, 0.6
- CCOC(=O)NC(NC(=O)OCC)C(=O)c1ccc(F)cc1
  1%, -2.4%, -2.8%, 0.0%, -6%, i, 2.7
- CC(C)CCNC(=O)CN(C(=O)Cn1nnc(-c2ccccc2F)n1)c1cccc2c1CCCC2
  14%, 1.5%, 2.4%, -0.2%, 1%, i, 0.7

The list continues:
Results follow in this order: GPR55 LPI antagonism, HIV fusion peptide, KOR beta-arrestin, GPR55 beta-arrestin, GPR35 arrestin U2OS, Myeloid diff 2, Myeloid diff 2 GFP+ MAC1+ %
- O=C(Nc1ccc2oc(=O)ccc2c1)c1cccnc1Cl
  -35%, 1.6%, 4.1%, -0.1%, -15%, i, 1.2
- O=C(NC1CCCCC1)NC1CC2CCCC(C1)N2C1CCCC1 (stereo not given)
  -2%, 2.6%, 6.3%, -0.1%, 13%, i, 0.5
- O=c1oc(-c2cccs2)nc2ccc(Br)cc12
  12%, 1.8%, -2.0%, 0.3%, -3%, i, 7.0
- Cc1sc(NC(=S)NC(=O)C(C)(C)C)c(C(N)=O)c1C
  28%, 2.3%, 2.7%, 0.2%, 33%, i, 6.2
- COc1ccc(NC(=O)[C@H](COCc2ccccc2)NC(=O)OC(C)(C)C)cc1
  17%, -2.2%, -0.3%, 0.0%, 8%, i, 1.1
- COc1ccc(NC(=O)c2ccccc2NC(=O)CSc2ccc(C)cc2)cc1
  5%, -1.6%, 13%, -0.1%, 2%, i, 1.7
- COc1ccc(C2N=C(N)N=C(N)N2c2ccccc2OC)cc1OC (stereo not given)
  12%, 0.1%, -1.0%, -0.1%, -6%, i, 0.8
- Cc1nc(NC(=O)c2ccc(Cl)cc2)sc1-c1csc(Nc2cccc(F)c2)n1
  -8%, 2.9%, -0.2%, 0.0%, -8%, nt, nt
- COc1cccc(C(=O)N2N=C(c3cccc(OC)c3)CC2(O)C(F)(F)F)c1 (stereo not given)
  17%, 5.0%, -0.5%, -0.3%, -8%, i, 4.9
- O=C(Nc1ccc(Cl)cc1)Nc1nc(-c2sccc2Br)cs1
  13%, 0.6%, -1.4%, -0.1%, 20%, i, 0.4
- CCOC(=O)c1cnc(-c2ccccc2)nc1Oc1ccc(Cl)c(Cl)c1
  8%, -1.8%, -0.3%, 0.1%, 4%, i, 0.8
- COCCn1nc2cc(C(=O)NCC34CC5CC(CC(C5)C3)C4)ccc2c1OC
  3%, -2.8%, 2.7%, -0.1%, -2%, i, 1.1
- CCc1cccc(CC)c1-n1c(SCc2cc(=O)n3ccsc3n2)nnc1-c1cccnc1
  10%, -1.4%, -1.0%, -0.1%, 7%, i, 18
- COc1ccc(NC(=O)c2cc3sccc3n2Cc2ccc(F)cc2)cc1OC
  9%, 1.0%, 2.7%, 0.3%, -1%, i, 1.3
- O=C(Nc1ccccc1)c1ccc(Cn2cc(C(F)(F)F)ccc2=O)cc1
  19%, -0.9%, 3.4%, -0.1%, 7%, i, 0.8
- C=CCn1c(SCc2nc3ccccc3[nH]2)nnc1-c1cccc(OC)c1
  -5%, 0.1%, 1.6%, 0.3%, 14%, i, 14
- Cc1nc(NC(=O)c2ccco2)sc1-c1csc(Nc2ccc(Cl)cc2Cl)n1
  -2%, -1.0%, 4.4%, 0.0%, -7%, i, 0.8
- COc1ccc(-c2[nH]c(-c3ccc(C(=O)O)cc3)nc2-c2ccccc2)cc1
  4%, 42%, -0.4%, -0.1%, -6%, i, 0.4
- Cc1ccc(F)cc1NC(=O)C12CC3CC(C1)CC(n1cnc([N+](=O)[O-])n1)(C3)C2
  2%, 1.7%, 0.9%, -0.1%, 17%, i, 1.0
- O=C(CCn1nc(-c2ccccc2)ccc1=O)NCCCN1CCCCCC1
  12%, -1.2%, 2.2%, -0.1%, -3%, i, 0.5
- CCNC(=S)NNC(=O)c1csc2ccccc12
  -1%, -3.7%, 1.6%, 0.0%, 2%, i, 6.9
- CC(NC(=O)c1ccccc1Br)c1ccc2c(c1)CCCC2 (stereo not given)
  1%, 1.1%, 4.7%, -0.1%, 4%, i, 16
- CN1CCN(c2ccc([N+](=O)[O-])cc2C(=O)c2ccc(Br)cc2)CC1
  -34%, -1.3%, 3.6%, -0.1%, 2%, i, 0.7
- CCOC(=O)c1cc2c(=O)n3ccccc3nc2n(Cc2ccco2)c1=NC(=O)c1cccnc1
  -10%, -0.3%, 5.1%, -0.1%, 13%, i, 0.5
- O=C(CSc1nnc(-c2ccccc2)n1-c1ccccc1)c1cccs1
  3%, 14%, 3.9%, -0.1%, 14%, i, 1.2
- CCOC(=O)c1c(C)[nH]c2c1cc(O)c1ccccc12
  -3%, 2.7%, 3.5%, -0.1%, -1%, i, 3.8
- O=C(Nc1ccc(-c2nc3ccccc3[nH]2)cc1)c1ccc2c(c1)OCO2
  16%, -4.0%, -3.2%, 0.3%, -2%, i, 5.0
- CON1C(=O)C(=O)N(OC)C2CCCCC21 (stereo not given)
  -12%, -1.6%, 14%, 0.0%, -5%, i, 5.7
- Cc1oc(C(=O)Nc2ccc(O)cc2)cc1COc1ccccc1
  -8%, 7.3%, -1.4%, -0.2%, -8%, i, 1.1
- O=C1NN(c2ccccc2)C(=O)/C1=C\c1ccccc1OCC(=O)N1CCOCC1
  5%, 15%, 7.0%, -0.1%, -6%, i, 1.5

A portion of the library; count on the stated rates, not on these rows.
